RanGTP-Imp inh: disruptors of Ran-importin-beta complex formation – biochemical, FRET, CFP-Ran, YFP-importin-beta, homogeneous, primary screen; cell-free CFP-Ran/YFP-importin-beta FRET ratio; inhibition, % (no concentration beside the values); hit rate 1.1% among 300,000; AID 2216;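 active means most replicates above 15%; inconclusive means exactly half above 15%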;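 further: 0% = DMSO wells and 100% = Ran loaded with GDP instead of GTP; wells of about 40 µL received 100 nL stock; the first replicate is given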
Ecoli growth: inhibitors of Escherichia coli growth; hit rate 0.21% among 330,000; OD600 absorbance (concentration not given with the values); AID 1053175; OD600, 23 h; active compounds read low;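 active means OD600 absorbance below the run mean of sample wells minus 3.6 SD, in any replicate, cut at about 0.56 in these data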;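 further: stock transfer was 300 nL into about 60 µL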
HNF4A DNA FP: change in binding of human HNF4 alpha to DNA. P41235. HNF4a-FITC DNA binding, fluorescence polarization, 1 h. activity change, % at 10 µM. hit rate 0.3% among 360,000. AID 1224865; in the data active means activity change above about 30%, passing the limit was not always enough;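 further: controls were the assay level and a saturating level of protein; the project sought stronger binding though the title names inhibitors; some compounds called inactive have numbers as strong as hits; positive values seem to mean higher polarization but the record does not say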
Vif TR-FRET: inhibitors of Vif binding to APOBEC3G peptide, primary screen, biochemical, TR-FRET, GST-Vif 1-94, biotin-A3G peptide, dose response retest (AID 1117319). TR-FRET GST-Vif / biotin-A3G peptide binding; higher % means a stronger effect; test concentration not given here; strong numbers were not always called active. inhibition, %; hits with a dose series show IC50 in µM. hit rate 0.57% among 260,000;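 active means above the screen mean plus three standard deviations and confirmed in dose response; inconclusive means results disagree or hit not tested in dose response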;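 further: Vif residues 1-94 fused to GST binding biotinylated APOBEC3G peptide 110-148; 0% = full assay without inhibitor and 100% = GST in place of GST-Vif; retest series ran down from 100 µM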
FGF22 binding: shifts melting point of recombinant human FGF22; Q9HCT0; recombinant FGF22 thermal shift, SYPRO orange fluorescence; percent of sucrose octasulfate shift, DMSO zero; calls only at 9.99 µM; hit rate 1.5% among 340,000; AID 651658;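 active means melting point raised past a set limit in the mean and every replicate; inconclusive means no clear call; three in four hits are not shown here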
Target sequence (Q9HCT0 whole entry, looked up): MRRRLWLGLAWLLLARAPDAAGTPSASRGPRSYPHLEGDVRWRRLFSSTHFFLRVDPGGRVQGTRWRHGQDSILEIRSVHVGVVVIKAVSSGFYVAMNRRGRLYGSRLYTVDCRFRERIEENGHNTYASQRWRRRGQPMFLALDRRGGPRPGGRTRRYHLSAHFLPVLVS
MLL AF4-AF9 inh: MLL-AF4/AF9 protein interaction inhibition; P42568; AlphaScreen, biotin-AF4 peptide binding to FLAG-AF9; inhibition, % at 10 µM; hit rate 0.47% among 350,000; AID 651704;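 active means every replicate reaching a set inhibition limit, whatever the replicate mean, cut at about 25% in these data; inconclusive means mean inhibition reaches that limit but some replicates miss it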;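 further: 0% = plate neutral control median and 100% = total signal loss; the record names both 10 and 1 µM as test concentration; the first replicate is given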
Target sequence (P42568 whole entry, looked up): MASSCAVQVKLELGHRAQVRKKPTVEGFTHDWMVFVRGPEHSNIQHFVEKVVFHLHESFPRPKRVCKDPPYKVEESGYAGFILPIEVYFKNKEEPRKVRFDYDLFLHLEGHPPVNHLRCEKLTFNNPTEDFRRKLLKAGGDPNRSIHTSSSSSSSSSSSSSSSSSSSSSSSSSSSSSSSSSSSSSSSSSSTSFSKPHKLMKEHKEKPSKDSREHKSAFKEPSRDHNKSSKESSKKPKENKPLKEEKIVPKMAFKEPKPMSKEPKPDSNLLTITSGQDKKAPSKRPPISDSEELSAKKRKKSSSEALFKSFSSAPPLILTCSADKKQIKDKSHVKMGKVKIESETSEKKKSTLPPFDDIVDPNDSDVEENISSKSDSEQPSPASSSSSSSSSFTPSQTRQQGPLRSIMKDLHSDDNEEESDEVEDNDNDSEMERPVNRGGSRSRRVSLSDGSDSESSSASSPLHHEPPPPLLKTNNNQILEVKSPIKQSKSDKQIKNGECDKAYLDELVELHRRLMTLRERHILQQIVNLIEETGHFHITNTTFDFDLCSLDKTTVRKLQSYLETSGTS
UCH37 inh: inhibitors of human deubiquitinating enzyme UCH37; Q9Y5K5; hit rate 0.33% among 330,000; AID 588478; purified proteasome/UCH37, Ub-AMC cleavage fluorescence; inhibition, % (no concentration beside the values);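 active means mean of two replicates above 20%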;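 further: 0% = compound-free wells with enzyme and 100% = wells lacking proteasome; stock transfer was 100 nL into about 20 µL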
Target sequence (Q9Y5K5 whole entry, looked up): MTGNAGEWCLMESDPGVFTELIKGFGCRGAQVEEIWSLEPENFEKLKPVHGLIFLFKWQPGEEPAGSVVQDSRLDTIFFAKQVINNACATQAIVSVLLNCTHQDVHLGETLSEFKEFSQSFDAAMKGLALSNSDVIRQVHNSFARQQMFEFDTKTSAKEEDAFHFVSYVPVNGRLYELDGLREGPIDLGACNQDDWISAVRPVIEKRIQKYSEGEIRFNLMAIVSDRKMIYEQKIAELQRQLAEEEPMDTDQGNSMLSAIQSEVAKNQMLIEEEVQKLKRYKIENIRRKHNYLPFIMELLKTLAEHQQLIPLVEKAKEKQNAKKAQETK
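assay system = human UCH37 enzyme supplied as purified proteasome complex | amount = proteasome at 0.15 nM in the dispensed enzyme solution | schedule = 30 min compound-proteasome preincubation then 25 min substrate reaction, room temperature | measured by = fluorescence, ex 355 nm, em 460 nm | benchmarks = no-proteasome wells (full inhibition) and compound-free wells (no inhibition)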
The depositor's hits bear a star; i = inactive; u = inconclusive; x = no result given; & = joins results of further samples.

SMILES	RanGTP-Imp inh	Ecoli growth	HNF4A DNA FP	Vif TR-FRET	FGF22 binding	MLL AF4-AF9 inh	UCH37 inh
COc1cccc(/C=C2\SC(=O)N(CCC(=O)N3CCCCC3CCO)C2=O)c1 (centres undefined)	u	0.632	2.2	4.0%	i	3.2	-0.9
O=C(CN1C(=O)c2ccccc2C1=O)NC(Cc1ccccc1)C(=O)O (centres undefined)	x	x	1.2	-10.5%	i	-1.4	x
Cc1ccc(S(=O)(=O)N2CCN(S(=O)(=O)c3ccccc3)C2c2ccc(N(C)C)cc2)cc1 (centres undefined)	u	0.768	2.3	-1.5%	x	x	0.3
Cc1cccc(NC(=O)Nc2cccc(C#N)c2)n1	8.8	0.713	-1.1	29.2%	i	-8.1	-0.4
Cc1ccc(/C=N/NC(=O)c2nnn(-c3nonc3N)c2-c2ccccc2)o1	1.3	x	-0.2	4.9%	i	2.1	x
Cc1ccccc1NC(=O)C1CCCN(S(=O)(=O)c2ccc(-n3cnnn3)cc2)C1 (centres undefined)	-2.0	0.648	-0.4	x	i	1.3	-1.0
CC1CN(C(=O)Cn2c(C(F)(F)F)nc3ccccc32)CC(C)O1 (centres undefined)	2.8	0.707	0.1	-3.5%	x	x	3.8
COc1ccc(C(C(=O)NC2CCCCC2)N(C(=O)c2snc(C(N)=O)c2N)c2ccccc2OC)cc1 (centres undefined)	2.3	0.686	-3.6	0.0%	i	9.7	-97.4
CC(Cc1ccccc1)NC(=S)CN1CCCC1=S (centres undefined)	0.4	0.683	-3.2	-3.7%	i	-3.0	1.4
O=C(CSc1nnc(C2CC2)n1C1CC1)c1cc(F)ccc1F	x	0.583	-0.6	-2.9%	i	0.9	0.2
CC(/C=C1\SC(=S)N(CCC(=O)Nc2cccc(C(=O)O)c2)C1=O)=C\c1ccccc1	-1.4	0.672	6.6	x	i	-1.6	21.6*
O=C(OCC(=O)N1CCN(S(=O)(=O)c2ccc(Cl)cc2)CC1)C1CCC1	0.7	0.705	1.2	-2.3%	i	-22.3	1.3
CC(=O)Nc1cc[n+](C(C)C(=O)c2ccc(Br)cc2)cc1 (centres undefined)	1.0	0.658	5.0	x	i	-0.8	1.7
CCOC(=O)CSc1ncc(-c2ccccc2)cn1	3.9	0.718	-3.1	-0.9%	x	x	4.7
O=C(Nn1cnnc1)c1ccc(Br)s1	-3.3	0.704	5.8	-7.0%	i	0.6	2.4
COc1cccc(C2CC(c3cccs3)=NN2S(C)(=O)=O)c1 (centres undefined)	0.6	0.65	10.8	-3.8%	i	-0.4	-0.2
C[C@@H]1C=CC(=O)O[C@@H]1c1ccc(Cl)cc1	0.5	x	x	x	i	-0.1	1.2
O=C(CCc1nc(-c2ccccc2Cl)no1)NCC1CCCO1 (centres undefined)	1.5	0.669	1.8	-8.6%	i	0.2	1.1
CCOC(=O)COc1ccc2c(c1)C(=O)CC(C)(C)O2	3.2	0.686	-1.4	-5.2%	i	u	i
CCn1cc(Br)c(C(=O)Nc2ccc(F)c(Cl)c2)n1	0.7	0.716	-4.2	22.1%	x	x	2.1
O=C(CSc1nnc(COc2ccc(Cl)cc2)o1)N1c2ccccc2CCc2ccccc21	3.2	0.77	-3.9	-2.9%	x	x	1.7
Cc1ccc(NC(C)c2cc(Cl)ccc2O)cc1 (centres undefined)	-4.9	0.704	3.0	1.9%	x	x	2.3
O=C(O)c1ccc(N2C(=O)CSC2c2cccc([N+](=O)[O-])c2)cc1 (centres undefined)	3.7	0.639	-1.7	-1.7%	i	-2.3	1.2
N=c1sccn1CC(=O)Nc1cccc(S(=O)(=O)N2CCCCCC2)c1	1.6	0.609	7.5	28.5%	i	6.0	-2.5
O=C(Nc1ccccc1)N1CCOCC1	0.9	0.66	1.2	3.1%	x	x	0.0
COc1ccc(NC(=O)CN2CCN(CC(=O)Nc3ccccc3F)CC2)cc1OC	1.2	0.746	-0.4	2.7%	x	x	2.7
COc1ccc2nc(N3C(=O)/C(=C/c4ccc(Cl)cc4)NC3=S)sc2c1	x	0.716	-1.6	u	x	x	13.2
CN(Cc1nc2ccccc2c(=O)[nH]1)C(=O)c1cccc(NC(=O)c2cccs2)c1	x	0.679	1.9	-6.3%	i	-1.6	1.1
CN(C)C(=O)c1ccc(NC(=O)c2cccc(-n3cnnn3)c2)cc1	x	x	1.7	x	i	-0.9	x
O=C(c1cccc2c1-c1ccccc1/C2=N/O)N1CCCCC1	-1.6	x	2.1	-9.7%	x	x	x
Cn1nc(C(=O)OCC(=O)Nc2ccc(SC(F)F)cc2)c2ccccc2c1=O	x	0.65	-5.9	x	i	0.2	1.1
O=S(=O)(Nc1cccc(-n2cnnn2)c1)c1cccc(Cl)c1	5.0	0.63	1.7	-6.3%	i	-9.0	2.9
COc1ccc(N(CC(=O)NCCSCc2ccccc2Cl)S(C)(=O)=O)cc1Cl	2.2	0.619	-0.2	x	i	-2.5	2.9
COc1ccc(OC)c(C(=O)N/N=C/c2ccccn2)c1	1.2	x	1.7	x	i	-1.5	x
CCOC(=O)c1cn2nc(Oc3cccc(F)c3)ccc2n1	u	0.622	3.9	1.1%	i	0.0	-39.8
CC1(C(=O)NS(=O)(=O)c2cccc(OC(F)F)c2)CCN1C(=O)COc1ccc(Cl)cc1 (centres undefined)	x	x	-6.1	x	i	4.9	x
COc1cccc(S(=O)(=O)NCc2ccc(C(=O)N3CCN(C)CC3)cc2)c1	-0.1	0.667	8.1	x	i	-1.3	-0.9
O=C1CSC(c2cccnc2)N1c1ccc(Cl)cc1 (centres undefined)	-2.2	0.706	-0.6	5.5%	i	-17.5	5.8
CC(=O)Nc1cccc(C(=O)NCCc2ccco2)c1	-3.9	0.661	0.9	3.4%	i	1.5	-0.9
COc1ccccc1C/C(N)=N/O	6.2	0.706	1.8	6.0%	x	x	-2.3
CC(C)CNC(=O)C1(C)CCCN1C(=O)CCc1cccs1 (centres undefined)	x	x	0.1	x	i	-3.5	x
COc1ccccc1-c1nnc(SCc2nc3ccccc3s2)n1C	4.7	0.618	2.0	-2.6%	i	8.1	0.4
CC(C)(C)c1ccc(-c2n[nH]c(=S)n2-c2ccccc2)cc1	-1.1	0.694	2.4	x	i	-2.0	5.5
NC(=O)C1CCN(C(=O)C2CCN(S(=O)(=O)c3ccccc3)CC2)CC1	3.0	0.773	14.6	-6.2%	i	-1.0	1.7
COc1ccc(CN2CCN(Cc3ccccc3F)CC2)cc1OC	-2.0	0.665	-2.8	x	i	-7.4	2.7

Entries listed so far that have a COOH group (three):
SMILES	RanGTP-Imp inh	Ecoli growth	HNF4A DNA FP	Vif TR-FRET	FGF22 binding	MLL AF4-AF9 inh	UCH37 inh
O=C(CN1C(=O)c2ccccc2C1=O)NC(Cc1ccccc1)C(=O)O (centres undefined)	x	x	1.2	-10.5%	i	-1.4	x
CC(/C=C1\SC(=S)N(CCC(=O)Nc2cccc(C(=O)O)c2)C1=O)=C\c1ccccc1	-1.4	0.672	6.6	x	i	-1.6	21.6*
O=C(O)c1ccc(N2C(=O)CSC2c2cccc([N+](=O)[O-])c2)cc1 (centres undefined)	3.7	0.639	-1.7	-1.7%	i	-2.3	1.2

Remaining list, next part
SMILES	RanGTP-Imp inh	Ecoli growth	HNF4A DNA FP	Vif TR-FRET	FGF22 binding	MLL AF4-AF9 inh	UCH37 inh
COc1ccc(S(=O)(=O)N2CCOCC2)cc1C(=O)N(C)Cc1ccccc1F	x	0.665	1.5	2.2%	i	-0.6	-1.7
CC(=O)Nc1ccc(S(=O)(=O)N(C)c2ccc(OCC(=O)OCC(=O)NCc3ccco3)cc2)cc1	-1.5	0.676	-4.1	x	i	-21.1	3.2
O=C(O/N=C/c1ccc(Cl)cc1)C1CCCCC1	-1.7	x	1.8	1.0%	i	0.1	x
CCc1nnc(SCc2ccc(C(=O)OC)o2)n1N	-0.3	0.68	0.0	14.0%	x	x	3.9
OC1CSc2nc3ccccc3n2C1 (centres undefined)	-0.2	0.671	1.5	8.2%	x	-0.4	-1.1
CCn1c(SCC(=O)NNC(=O)c2ccc(C)cc2)nnc1C(C)C	0.4	0.713	-3.8	x	i	-2.7	2.7
CCOc1cc(C(=O)N(C)Cc2cc3ccccc3[nH]c2=O)cc(OCC)c1OCC	23.9	0.751	2.8	-4.3%&-0.3%	x	x	2.4
CSc1ncc(CN2CCN(C3CCCC3)C(CCO)C2)cn1 (centres undefined)	2.6	0.691	2.1	20.3%	i	-3.2	0.6
Cc1nn(-c2cc(Cl)ccc2Cl)c(C)c1C(=O)O	u	0.69	-1.0	-9.4%	i	-2.4	2.5
Cc1ccc(C(=O)c2nocc2C(=O)c2cccs2)cc1	0.1	0.712	3.7	0.2%	x	x	1.0
O=C1CC2(CCN1)CCN(Cc1ccccc1)CC2	x	x	1.8	-6.6%	i	1.1	x
O=C(NCCc1nc2ccccc2[nH]1)/C(=C/c1ccco1)NC(=O)c1ccc(Br)cc1	1.6	0.625	0.7	x	i	11.6	2.3
COc1ccc(S(=O)(=O)NNC(=O)c2ccc([N+](=O)[O-])cc2)cc1	u	0.719	-1.0	x	i	-3.2	2.8
C[C@H](CO)N1C[C@H](C)[C@@H](CN(C)S(=O)(=O)c2cccs2)Oc2c(NC(=O)NC3CCCCC3)cccc2C1=O	x	x	0.8	x	i	-0.7&1.0	4.6
CCOC(=O)C(NS(=O)(=O)c1ccc(C)cc1)(C(F)(F)F)P(=O)(OCC(C)C)OCC(C)C (centres undefined)	u	0.7	1.3	3.0%	i	2.1	1.0
CCS(=O)(=O)N1CCC(C(=O)NCC2CCCO2)CC1 (centres undefined)	5.9	0.706	2.7	2.9%	x	x	1.8
S=C(NCCN1CCCCC1)Nc1ccc(Br)cc1	0.2	0.639	4.4	x	i	5.4	2.6
CCc1ccc(CNC(=O)CN2C(=O)COc3ccccc32)cc1	-2.3	0.676	-1.6	0.0%	i	-59.7	5.6
CCOc1ccc2ccccc2c1CNCCc1ccc(S(N)(=O)=O)cc1	-3.9	0.631	3.7	x	i	-0.8	2.3
S=C(NCc1ccc(Cl)cc1)NCc1ccccn1	-3.6	0.671	2.9	u	i	5.3	-1.8
COc1ccc(OCC(=O)N/N=C(\C)CC(=O)Nc2ccc(OC)cc2[N+](=O)[O-])cc1	7.4	x	2.6	x	i	-0.9	x
C=C(C)CNC(=S)NNC(=O)c1ccco1	5.0	0.7	-0.4	-1.3%	x	x	-2.2
N/C(=N\OC(=O)c1ccc([N+](=O)[O-])cc1)c1ccccn1	2.5	x	1.3	-11.5%	i	-0.9	x
O=C(NCCCN1CCOCC1)c1onc(CSc2ccncc2)c1C(=O)NCCCN1CCOCC1	1.1	0.696	-1.7	x	i	-3.3	2.5
Cc1ccc(Nc2nc(N)c([N+](=O)[O-])c(N3CCCC(C)C3)n2)cc1C (centres undefined)	7.2	0.701	-3.2	x	x	x	6.9
Cc1cccc(CCNS(=O)(=O)c2cnc[nH]2)c1	0.5	0.702	-1.1	-9.3%	x	x	3.4
O=C(NCCN1CCOCC1)C1CC(=O)N(c2ccc(F)cc2)C1 (centres undefined)	6.2	0.666	0.9	x	i	-3.2	1.8
Cn1c(=O)[nH]c(=O)c2c1nc(N/N=C/c1cccnc1)n2Cc1ccc(Cl)cc1	0.7	x	1.6	-2.7%	i	1.4	x
CN(CC(=O)Nc1ccc(N2CCOCC2)cc1)C(=O)C1CCCC1	5.0	0.658	-0.2	23.2%	i	-0.9	0.0
CCC(CC)COC(=O)C(C#N)c1nc2ccccc2nc1N1CCOCC1 (centres undefined)	10.5	0.715	0.9	0.7%	x	x	2.2
Cc1cc(C)c2sc(N(CCN(C)C)C(=O)c3c(F)cccc3F)nc2c1	2.5	0.662	-0.1	-3.2%	i	23.5	0.6

From PubChem BioAssay

An excerpt. The share of hits here may be higher or lower than overall.
